# HCMV NEC inh: disrupts HCMV UL50-UL53 complex binding; actives 0.15% (n = 190,000); inhibition, % (no concentration beside the values); HTRF UL50-UL53 interaction, normalized percent inhibition;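 active = both replicates at 50% or more, plus weaker picks with an unusually low signal ratio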;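 note: stock transfer was 100 nL into about 20 µL; 0% = negative control wells and 100% = wells with untagged competitor protein; inactives centre near -12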
# Active calls of the source: *; & = joins results of further samples. The list is partial (hit frequency here may not be typical).
SMILES,HCMV NEC inh
OC(c1ccccc1)C1CCN(CCc2ccccc2)CC1 (configuration not stated),4
Cc1cc(C)c(S(=O)(=O)n2cc(C)cc2C)c(C)c1,12
CC(=O)Nc1ccc2c(c1)CCC2=O,5
CN[C@H](CC(C)C)C(=O)N[C@H]1C(=O)N[C@@H](CC(N)=O)C(=O)N[C@H]2C(=O)N[C@H]3C(=O)N[C@H](C(=O)N[C@H](C(=O)O)c4cc(O)cc(O)c4-c4cc3ccc4O)[C@H](O)c3ccc(c(Cl)c3)Oc3cc2cc(c3O[C@@H]2OC(CO)[C@@H](O)[C@H](O)[C@H]2O[C@H]2C[C@](C)(N)[C@H](O)[C@H](C)O2)Oc2ccc(cc2Cl)[C@H]1O (some centres not stated),-16
O=C1NC(=O)/C(=C/c2cccc(C(F)(F)F)c2)S1,-13
CNCc1ccc(-c2cc(-c3nc(-c4ccc(S(=O)(=O)C(C)C)cc4)cnc3N)on2)cc1,-139
COC(=O)CSC1=C(C#N)C(c2ccccc2C)C2=C(CCCC2=O)N1 (configuration not stated),0
CCCCCCCCCCCCCCCCCCCC(=O)NCCO,-24&-24
Cc1[nH]c2ccccc2c1SCCNC(=O)C1CC1,-17
CC(=O)Oc1cccc(/C=c2/sc3nc(-c4ccc(F)cc4)nn3c2=O)c1,-11
CCN(CC)CC(O)COC1C2CC3CC(C2)CC1C3 (configuration not stated),-18
C[C@H]1NC(=O)[C@@H]2C[C@H](NC(=O)c3cnn(-c4ccccc4)c3C(F)(F)F)CN2C1=O,8
COc1ccc(-n2nc3c(c2NC(=O)C2CCCCC2)CSC3)cc1,-10
O=C(Nc1nnc(-c2ccccc2)s1)c1ccccc1C(F)(F)F,3
COc1ccc2c(C(=O)N(C)CCc3ccccn3)cc(-c3cnn(C)c3)nc2c1,-20
COC(=O)C1=C(NC(=O)c2ccco2)CCS1,-33
O=C(O)CCC/C=C\C[C@@H]1[C@@H](/C=C/[C@@H](O)CCc2cccc(C(F)(F)F)c2)[C@H](O)C[C@@H]1O,-15&-15
NC(Cn1ccc(=O)n(Cc2ccccc2C(=O)O)c1=O)C(=O)O (configuration not stated),1
CCC(=O)Nc1nc2c(C)c(C)ccc2s1,-1
O=C(NCCSc1c[nH]c2ccccc12)C1CCCC1,-13
c1ccc(NC2=NCCCCC2)cc1,-16
CCOc1ccc(-n2ccnc2SCC(=O)Nc2ccc(Cl)cc2)cc1,-5
O=C(O)/C=C/c1cccc(NS(=O)(=O)c2cccc3cccnc23)c1,-27
O=C(Nc1ccc(N2CCOCC2)cc1)c1sc2cc(F)ccc2c1Cl,-4
CC(NC(=O)c1cccs1)C(c1cccs1)N1CCN(Cc2ccccc2)CC1 (configuration not stated),10

# Additional compounds
SMILES,HCMV NEC inh
c1ccc(-c2cnnc(SCc3cn4cccnc4n3)n2)cc1,-27
COC(=O)c1c(-c2ccccc2)csc1NC(=O)CCN1CC(C)OC(C)C1 (configuration not stated),-13
N#C/C(=C/Nc1cccc2ccccc12)c1nc(-c2ccccc2)cs1,-2
N#CCSc1nnc(-c2cccs2)n1-c1ccccc1,8
O=C(O)CC1(C(F)(F)F)OCCO1,6
O=C(C1CCCCCC1)N1CCC(Cn2cc(CCO)nn2)CC1,-19
C=CCn1c(=NC(=O)/C=C/c2ccccc2)sc2cc(NC(C)=O)ccc21,-7
CCOC(=O)c1c(-c2ccccc2)csc1NC(=O)CCCC(=O)O,-16
CC(C)(C)C(=O)NCCc1nc2ccccc2[nH]1,0
CN1C(C)(C)CCCC1(C)C,-19
Cc1c(CC(C)(C)C(=O)O)n(Cc2ccc(Cl)cc2)c2ccc(F)cc12,-21
CCCSc1nc2c([nH]c3ccccc32)c(=O)n1-c1ccccc1,18
C[Se]CC[C@H](N)C(=O)O,-36
O=C(CS[n+]1ccccc1)c1ccc(Br)cc1,-1
CCN(CC)c1ccc(N2C(=O)/C(=C/c3ccccc3)SC2=S)cc1,-8
c1ccc(Sc2cnc3ccccc3n2)cc1,1
NC(=S)NCCC[C@H](N)C(=O)O,-19&-19&-4
CN(C)C1CCCCC1NS(=O)(=O)c1ccc(Cl)cc1 (configuration not stated),-9
O=C(COC(=O)c1cc2ccccc2oc1=O)c1ccc(Br)cc1,-20
Cc1ccc(-n2ncc3c(NCc4cccs4)ncnc32)c(C)c1,3
O=C(O)CCN1C(=O)C2C3C=CC(C3)C2C1=O (configuration not stated),0
CCOc1ccc(-c2nc3ccc(-c4nc5ccc(N6CCN(C)CC6)cc5[nH]4)cc3[nH]2)cc1,75*
O=C(CN1C(=O)/C(=C\c2cccs2)SC1=S)N1CCN(c2ccccc2)CC1,5&-13
CC(C(=O)O)N1C(=O)/C(=C\c2ccc(Br)cc2)SC1=S (configuration not stated),-30
Clc1cccc(C=NC=Nc2cccc(Cl)c2)c1,0

# Additional results follow.
SMILES,HCMV NEC inh
O=C(Oc1ccc2oc3c(c2c1)CCCC3)c1ccco1,2
CCN(CC)S(=O)(=O)c1cccc(C(=O)Nc2cccc(F)c2)c1,-18
CC1CCc2sc(NC(=O)Cc3ccccc3)c(C(N)=O)c2C1 (configuration not stated),3
CNC(=O)c1ccsc1NC(=O)/C=C/c1ccccc1,-12
COc1ccc2nc(Cn3cnc4sc(C)cc4c3=O)[nH]c2c1,-10
CCCC(NC(=O)c1ccc[n+]([O-])c1)c1ccccc1 (configuration not stated),6
O=C(O)CCC(=O)c1ccc2ccccc2c1,-54
Cc1nnc2c3cnn(-c4ccccc4)c3nc(C)n12,-9
CN(C)CCCNc1ncnc2sc3c(c12)CCCC3,-1
CCN1CCN(c2nc(C)nc3sc4c(c23)CCC4)CC1,-13
Cc1nc(-c2ccc(OCC(C)C)c(C#N)c2)sc1C(=O)O,-54&-74
O=C(NCC1OCCc2ccccc21)c1ccccc1Br (configuration not stated),0
O=C1OC(c2ccc3c(c2)CCC3)c2ccccc21 (configuration not stated),-3
COc1ccc(N2C(=O)CS/C2=N/S(=O)(=O)c2ccc(F)cc2)cc1,6
CC(C)C(=O)Oc1ccc(CO)cc1C(CCN(C(C)C)C(C)C)c1ccccc1 (configuration not stated),-16
O=C(O)CC(c1ccc(Cl)c(Cl)c1)N1Cc2ccccc2C1=O (configuration not stated),0
CCOC(=O)C1C(=O)C=C(c2ccco2)CC1c1ccc(N(C)C)cc1 (configuration not stated),-15
CCOC(=O)Cn1c(CN2CC(C)OC(C)C2)nc2c1c(=O)n(C)c(=O)n2C (configuration not stated),1
C[C@@H]1C(=O)O[C@H]2CC34[C@H]5C[C@@H](C(C)(C)C)C36C(OC(=O)[C@H]6O)O[C@@]4(C(=O)O5)[C@]21O (some centres not stated),2
CC(=O)C1=C(O)C=C2Oc3c(C(C)=O)c(O)c(C)c(O)c3[C@]2(C)C1=O,-13
O=C(Nc1nc2ccc3ccccc3c2s1)c1cccs1,-27
CC1CCc2sc(NC(=O)COc3ccc(Cl)cc3)c(C(N)=O)c2C1 (configuration not stated),1
O=C1CCCC2=C1C(c1ccccn1)C1=C(CCCC1=O)O2,-4
NS(=O)(=O)c1ccc(NC(=O)Nc2ccc(F)cc2)cc1,-1
CC12CCC(C(=O)Nc3ncc(Cl)cc3Cl)(CC1=O)C2(C)C (configuration not stated),-5

# New compounds follow:
SMILES,HCMV NEC inh
COc1ccc2oc(C#N)cc2c1,0
Cc1c(CN2CC(=O)N(Cc3ccccc3)CC(O)C2)c(=O)n(-c2ccccc2)n1C (configuration not stated),3
CCCN(CCC)c1ncnc2c1cnn2-c1ccccc1,12
CCOC(=O)c1csc(NC(=O)C2CCCCC2)n1,-10
COC(=O)c1ccccc1OCC#N,-20
COc1cc2ccccc2cc1C(=O)Nc1ccc(F)cc1F,5
O=C1CC(Nc2ccc(N3CCOCC3)cc2)C(=O)N1C1CCCCC1 (configuration not stated),-2
Cc1cc(C)c(-c2nnc(NC(=O)c3cccs3)s2)c(C)c1,-1
CCCCc1cn(C2CCN(C3CCCC(C)(C)C3)CC2)nn1 (configuration not stated),-3
CON=C1C[C@]2(C[C@@H]3C[C@@H](C/C=C(\C)C[C@@H](C)/C=C/C=C4\CO[C@@H]5[C@H](O)C(C)=C[C@@H](C(=O)O3)[C@]45O)O2)O[C@H](/C(C)=C/C(C)C)[C@H]1C,-20
COc1ccc(-c2ccc3c(N4CCOCC4)nc(N4CC(C)OC(C)C4)nc3n2)cc1CO (configuration not stated),-59&-42&-64&-32
CC(=O)OCC(=O)[C@@]1(O)CCC2C3CCC4=CC(=O)C=C[C@]4(C)[C@@]3(Cl)[C@@H](Cl)C[C@@]21C (some centres not stated),-35
CN1CCN(S(=O)(=O)c2cc(C(=O)NCCc3ccccn3)cc(-c3ccccc3)c2)CC1,-6
O=C(NC1CCN(CCCCC2(C(=O)NCC(F)(F)F)c3ccccc3-c3ccccc32)CC1)c1ccccc1-c1ccc(C(F)(F)F)cc1,-3
Cc1nc2ccc(CN(C)c3ccc(C(=O)NC(CCC(=O)O)C(=O)O)s3)cc2c(=O)[nH]1 (configuration not stated),-20&-70
O=C(Nc1ccc(I)cc1)NC1CCCCC1,-21
CC1CCCCN1C(=O)CSCC(=O)Nc1nc(-c2cccs2)cs1 (configuration not stated),-19
OCC(O)CCO/N=C1/C(c2c(O)[nH]c3ccccc23)=Nc2ccccc21 (configuration not stated),-125
Cc1cc2ccccc2nc1-c1ccccc1,-6
CCn1ncc(NC(=O)Cn2nc(C)c(-c3cccc(C(C)=O)c3)c2C)n1,46&46
CC(=O)NC1C(N=C(N)N)C=C(C(=O)O)O[C@H]1C(O)C(O)CO (some centres not stated),-16
COc1cccc(C(=O)NCCc2cc3c(C)ccc(C)c3[nH]c2=O)c1OC,-18
CCOc1ccc(NC(=O)CSc2nccn2-c2ccccc2)cc1,-15
Cc1ccc(C(=O)CSc2nnnn2-c2cccc(C)c2)cc1,-4
O=C(CSc1ncnc2c1oc1ccccc12)Nc1nccs1,-3

# A portion taken from the entries so far:
SMILES,HCMV NEC inh
COc1ccc2oc(C#N)cc2c1,0
Cc1c(CN2CC(=O)N(Cc3ccccc3)CC(O)C2)c(=O)n(-c2ccccc2)n1C (configuration not stated),3
CCCN(CCC)c1ncnc2c1cnn2-c1ccccc1,12
CCOC(=O)c1csc(NC(=O)C2CCCCC2)n1,-10
COC(=O)c1ccccc1OCC#N,-20
COc1cc2ccccc2cc1C(=O)Nc1ccc(F)cc1F,5
O=C1CC(Nc2ccc(N3CCOCC3)cc2)C(=O)N1C1CCCCC1 (configuration not stated),-2

# A draw from above in order of SMILES length, falling:
SMILES,HCMV NEC inh
Cc1nc2ccc(CN(C)c3ccc(C(=O)NC(CCC(=O)O)C(=O)O)s3)cc2c(=O)[nH]1 (configuration not stated),-20&-70
COc1cccc(C(=O)NCCc2cc3c(C)ccc(C)c3[nH]c2=O)c1OC,-18
CC1CCCCN1C(=O)CSCC(=O)Nc1nc(-c2cccs2)cs1 (configuration not stated),-19
Cc1ccc(C(=O)CSc2nnnn2-c2cccc(C)c2)cc1,-4
COc1cc2ccccc2cc1C(=O)Nc1ccc(F)cc1F,5
CCCN(CCC)c1ncnc2c1cnn2-c1ccccc1,12
COC(=O)c1ccccc1OCC#N,-20

# Next entries:
SMILES,HCMV NEC inh
O=C(O)c1ccccc1C(=O)c1cccs1,-12
C/C(=C(\CCOP(=O)(O)O)SC(=O)c1ccccc1)N(C=O)Cc1cnc(C)nc1N,-21
O=C(CSCC(=O)N1CCOCC1)Nc1nc(-c2ccccc2)cs1,-14
O=C(O)c1ccc(-c2cc(Cl)ccc2Cl)o1,-29
O=C(Nc1c(C(=O)c2ccccc2)oc2ccccc12)c1ccccc1F,-4
Cc1ccc(C(=O)COC(=O)c2cc3cc(Br)ccc3oc2=O)cc1,-6
COc1c2ccccc2c(OC)c2ccccc12,-16
O=c1oc2ccccc2c(O)c1C=Nc1cccc(C(F)(F)F)c1,-16
O/N=C/c1ccn(-c2ccc(Br)cc2)c1,-6
O=C(Cc1cccs1)Nc1nnc(SCC(=O)N2CCCCCC2)s1,-23
CCCCN(Cc1ccc(C(=O)NO)cc1)C(=O)Nc1ccccc1,-2
Cc1ccc(-c2nc3s/c(=C/c4cccs4)c(=O)n3n2)cc1,-2
O=C(OC/C=C/c1ccccc1)c1ccc(S(=O)(=O)N2CCOCC2)cc1,-28
CC1CCc2sc(NC(=O)C(C)C)c(C(N)=O)c2C1 (configuration not stated),0
C=CCc1cccc(C=Nc2ccc(Br)cc2)c1O,-11
CCOC(=O)c1c(C)nn(-c2ccc(OC)cc2)c1C,-22
O=C(C1=COCCO1)N1CCN(c2ccccc2)CC1,-6
Clc1ccccc1CNCC1CCC(CNCc2ccccc2Cl)CC1 (configuration not stated),-4
CCOc1ccc(NC(=O)c2cc(=O)c3ccccc3o2)cc1,-5
O=c1ccc2ccc(OCc3ccc(Cl)cc3)cc2o1,-17
O=C(Nc1c(Cl)cncc1Cl)c1ccc(OC(F)F)c(OCC2CC2)c1,14
Cn1c(=NC(=O)c2ccc(Cl)s2)sc2cccc(Cl)c21,0
Cc1cc(O)cc2oc(C(F)(F)F)c(Oc3ccccc3)c(=O)c12,-2
Clc1ccc(-c2nc3sccn3c2/C=N/OCc2ccc(Cl)c(Cl)c2)cc1,-4&-11
CCCCC#Cc1nc(NC)c2ncn([C@@H]3O[C@H](CO)[C@@H](O)[C@H]3O)c2n1,-4
CCCS(=O)(=O)N1CCN=C1SCc1ccccc1,2&-8
Cc1cccc(CSc2ncnc3nc[nH]c23)c1,-14
O=C(O)CCC/C=C\C[C@@H]1[C@@H](/C=C/[C@@H](O)C2CCCCC2)[C@H](O)C[C@@H]1O,-16&-16
CC(=O)Nc1c2c(nn1-c1ccccc1)CSC2,-12

# Retrieved one by one from above (5):
SMILES,HCMV NEC inh
COc1ccc2oc(C#N)cc2c1,0
CCCCc1cn(C2CCN(C3CCCC(C)(C)C3)CC2)nn1 (configuration not stated),-3
CN(C)C1CCCCC1NS(=O)(=O)c1ccc(Cl)cc1 (configuration not stated),-9
CCOc1ccc(NC(=O)c2cc(=O)c3ccccc3o2)cc1,-5
O=C(NC1CCN(CCCCC2(C(=O)NCC(F)(F)F)c3ccccc3-c3ccccc32)CC1)c1ccccc1-c1ccc(C(F)(F)F)cc1,-3
